INS promoter inh: inhibitors of insulin promoter-driven GFP, primary screen, imaging, TRM-6 cells (human fetal islet line), eGFP reporter, cell count | inhibition, % at 2 µM | 130,000 compounds, 0.9% hits | reporter expression induced with tamoxifen | AID 1273, 2008;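 active = inhibition above the mean plus 3 SD, with well images judged a real hit on visual review, cut at about 60% in these data, passing the limit was not always enough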
PKD1 kinase inh: inhibitors of human PKD1 kinase, biochemical, fluorescence polarization. PKD1 kinase fluorescence polarization assay. inhibition, %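 (about 10 µM by stock and volumes)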. 200,000 compounds, 0.056% hits;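 active = inhibition of 50% or more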;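 also: controls were vehicle for no effect and a reference inhibitor for full effect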
HSV augment: enhancers of HSV replication in host cells, fold increase, host cell viability | maximum fold increase | HSV replication augmentation in cells | 220,000 compounds, 0.005% hits;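 active = peak rise of 1.5-fold or more in the series; tested in PC3 cells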;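 also: first round at 10 µM; read as green reporter fluorescence; hits show the peak of a series up to 25 µM; 1 = signal of infected wells without compound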
RGS16-Gao: modulators of RGS16 binding to Galphao, primary screen, biochemical, human proteins, multiplexed bead flow cytometry; 220,000 compounds, 0.38% hits; binding response (% of control), % at 10 µM; AID 1441, 2008; Regulator of G-protein signaling 16 (Homo sapiens) + Guanine nucleotide-binding protein …; bead-based flow cytometry RGS16-Galphao binding, fluorescence; actives lie on both sides;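 active = below 25% or above 175%, edge rows of some plates excepted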;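 also: Galphao activated by GDP with aluminum fluoride before binding; 100% = wells without compound and 0% = beads without RGS; some results beyond the cut were filed as inactive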
Target sequence (O15492 whole entry, looked up): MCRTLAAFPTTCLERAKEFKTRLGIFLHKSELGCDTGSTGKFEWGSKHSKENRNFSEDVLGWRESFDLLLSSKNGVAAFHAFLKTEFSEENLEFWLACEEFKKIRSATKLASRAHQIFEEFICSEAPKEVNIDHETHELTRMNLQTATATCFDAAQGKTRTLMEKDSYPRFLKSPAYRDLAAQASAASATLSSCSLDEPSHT
Target sequence (P09471 whole entry, looked up): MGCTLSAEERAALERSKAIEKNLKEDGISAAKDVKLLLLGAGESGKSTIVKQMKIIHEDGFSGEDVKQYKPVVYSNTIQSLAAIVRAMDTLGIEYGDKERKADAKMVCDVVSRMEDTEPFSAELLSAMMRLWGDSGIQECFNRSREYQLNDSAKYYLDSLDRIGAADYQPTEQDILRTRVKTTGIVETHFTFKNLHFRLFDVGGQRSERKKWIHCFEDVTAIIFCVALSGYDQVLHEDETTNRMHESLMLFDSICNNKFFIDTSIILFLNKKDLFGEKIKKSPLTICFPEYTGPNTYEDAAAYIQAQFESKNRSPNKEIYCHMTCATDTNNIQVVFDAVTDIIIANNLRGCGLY
GALR2 ag: GALR2 receptor agonists, primary screen, cell-based; GALR2-expressing cells, agonist activation read-out; activation, %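 (tested at 5 µM)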; Galanin receptor type 2 (Homo sapiens), O43603; AID 803, 2007; 140,000 compounds, 0.48% hits;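 active = above mean plus 3 SD of all compounds, about 5% in these data, not always enough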;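 also: 0% = vehicle buffer wells and 100% = reference agonist at full effect; tested in CHO reporter cells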
Target sequence (O43603 whole entry, looked up): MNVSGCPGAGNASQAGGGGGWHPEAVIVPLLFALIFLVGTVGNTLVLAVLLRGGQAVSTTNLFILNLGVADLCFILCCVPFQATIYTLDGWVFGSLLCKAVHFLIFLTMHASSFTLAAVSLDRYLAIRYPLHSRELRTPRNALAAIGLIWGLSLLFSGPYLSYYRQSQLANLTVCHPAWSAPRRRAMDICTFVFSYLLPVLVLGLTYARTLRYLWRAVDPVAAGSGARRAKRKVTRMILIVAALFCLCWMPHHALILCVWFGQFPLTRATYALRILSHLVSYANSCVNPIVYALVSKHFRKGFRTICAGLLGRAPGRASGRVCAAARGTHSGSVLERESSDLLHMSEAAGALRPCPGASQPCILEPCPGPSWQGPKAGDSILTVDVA
INS promoter inh cell count: also measured in INS promoter inh; calls as there; normalized cell count, %; measured here: cell count, toxicity; reference of the scale not given here;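 cells exposed to compound for 48 h; stained nuclei by imaging scaled within each plate; lower means fewer cells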
HSV augment primary fold: second read-out of HSV augment, no call of its own (marks repeat the call); fold increase; compound at 10 µM; measured here: primary screen fold increase 10 uM; tested in PC3 cells;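 GFP signal in the first replicate; 1 = infected wells without compound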
An asterisk follows results filed as active; i = inactive; . = no result given.

SMILES	INS promoter inh	INS promoter inh cell count	PKD1 kinase inh	HSV augment	HSV augment primary fold	RGS16-Gao	GALR2 ag
Cc1ccc(/C(O)=C2\C(=O)C(=O)N(CCc3c[nH]c4ccccc34)C2c2cccnc2)cc1 (configuration not stated)	8	114	6	i	1	117	.
Cc1ccc2nnc(Cl)n2n1	10	166	-11	.	.	118	-2.4
CC(=O)Oc1ccc(N(C(C)=O)S(=O)(=O)c2cc([N+](=O)[O-])ccc2C)cc1	11	143	-6	i	0.86	118	-1.1
CCOC(=O)Cc1csc(NC(=S)NC(=O)CC(C)C)n1	11	61	-13	i	1	108	-0.7
Cc1ccc(C(=O)NCCc2nnc3ccc(SCC(=O)Nc4cc(C)on4)nn23)cc1	6	60	-7	i	0.97	104	.
COc1cc(C(=O)N2CCN(S(=O)(=O)c3ccc(F)cc3)CC2)cc(OC)c1OC	-4	113	0	i	0.68	105	0.6
CCOC(=O)c1ccc(NC(=O)COc2ccc(S(=O)(=O)NC(C)C)cc2)cc1	-41	60	-5	.	.	107	0.4
CSc1cccc(NS(=O)(=O)c2ccccc2)c1	5	89	-1	i	1.1	101	-0.7
Cc1cccc(OCC(=O)N(Cc2cccs2)C2CCS(=O)(=O)C2)c1C (configuration not stated)	-121	101	-9	i	1	53	-3.9
COc1ccc(COc2ccsc2C(=O)Nc2ccc(Cl)cc2)cc1	6	144	4	i	0.94	101	-1.1
CCC1CCCCN1C(=O)CSc1nc2c([nH]c3ccccc32)c(=O)n1C (configuration not stated)	-53	80	-8	i	0.67	107	-0.6
O=C(COc1ccc(S(=O)(=O)N2CCCCC2)cc1)NCc1cccnc1	25	81	-10	i	1.2	95	-2.8
COC(=O)C1=C(O)/C(=C\c2ccc(O)c(OC)c2)N=C1C	61	98	3	i	1.1	93	-3.5
O=C(Cn1cccc1C(=O)c1ccccc1)NCCN1CCOCC1	-1	146	-5	i	0.97	102	-0.3
CC(=O)c1c(C)nc2ccccc2c1N	88*	94*	2	i	0.88	106	0.1
CN(C)C(=O)COC(=O)c1cccc(CN2C(=O)c3ccccc3C2=O)c1	-36	63	-2	i	1	50	.
CC(C)c1ccccc1NC(=S)N(C)C	.	.	.	i	0.93	-25*	.
COc1ccccc1Nc1nc(-c2cccc(N3C(=O)c4ccccc4C3=O)c2)cs1	-64	77	0	i	1	99	-1.3
Cc1cc(C(F)(F)F)nn1CC(=O)NNC(=S)Nc1ccc(F)cc1	-19	48	-5	i	1.1	103	0.8
O=C(NC(Nc1nc2ccc([N+](=O)[O-])cc2s1)(C(F)(F)F)C(F)(F)F)c1ccccc1	-17	101	-3	i	0.64	86	-0.8

Structural class: the compounds so far containing a Cl atom (two)
SMILES	INS promoter inh	INS promoter inh cell count	PKD1 kinase inh	HSV augment	HSV augment primary fold	RGS16-Gao	GALR2 ag
Cc1ccc2nnc(Cl)n2n1	10	166	-11	.	.	118	-2.4
COc1ccc(COc2ccsc2C(=O)Nc2ccc(Cl)cc2)cc1	6	144	4	i	0.94	101	-1.1

(listing goes on)
SMILES	INS promoter inh	INS promoter inh cell count	PKD1 kinase inh	HSV augment	HSV augment primary fold	RGS16-Gao	GALR2 ag
Cc1ccc(CSc2nc3ccsc3c(=O)n2Cc2ccccn2)cc1	-26	99	-5	i	1.1	59	0.4
Cc1cc(C)c(NC(=O)c2cnn(C)c2)c(C)c1	-15	87	12	i	1.1	-386	-1.5
c1cnn(Cc2cnc(N3CCOCC3)s2)c1	.	.	7	i	0.84	108	.
COC(=O)C1=C(C(=O)OC)[C@@H]2N(C)c3ccc(OC)cc3[C@@]23C[C@@H](C(=O)OC)N(C(=O)C2CCC2)C3=N1	.	.	.	i	0.82	105	.
COCCOc1cc(NC(=O)CS(=O)CC(=O)N(C)C)c(Cl)cc1Cl (configuration not stated)	.	.	-2	i	0.89	92	.
COc1ccc(C(C(=O)NC(C)(C)C)N(C(=O)CNC(=O)c2cccs2)c2ccc(C)cc2)cc1OC (configuration not stated)	-30	106	-11	i	1.1	104	-0.6
CC(C(=O)Nc1cccnc1)C1Sc2ccccc2NC1=O (configuration not stated)	.	.	-5	i	0.99	128	.
Cn1c(CCC(=O)OCC(=O)NCc2ccc3c(c2)OCO3)nc(=O)c2ccccc21	-11	99	1	i	0.97	109	.
CC[C@H]1OC(=O)[C@H](C)[C@@H](O[C@H]2C[C@@](C)(OC)[C@@H](O)[C@H](C)O2)[C@H](C)[C@@H](O[C@@H]2O[C@H](C)C[C@H](N(C)C)[C@H]2O)[C@](C)(O)C[C@@H](C)[C@@H]2N[C@@H](COCCOC)O[C@H]([C@H]2C)[C@]1(C)O	59	62	1	i	0.81	40	-2.2
Cc1ccccc1CCN(C(=O)CN1C(=O)c2ccccc2S1(=O)=O)C(C(=O)NCC1CCCO1)c1ccncc1 (configuration not stated)	5	131	0	i	0.86	99	-0.1
Cc1ccc(-c2nn(C)c(=O)c3ccccc23)cc1CO	-47	71	-1	i	0.99	97	-2.0
Cc1cccc(NC(=O)c2nc[nH]c2C(=O)N[C@@H](CCCCNC(=O)OC(C)(C)C)C(=O)OC(C)(C)C)c1	.	.	.	i	0.87	94	.
Cn1c(=O)[nH]c(=O)c2c1nc(NCCCO)n2Cc1ccc(F)cc1	25	80	-10	i	0.96	98	-0.9
CC12CCC(C(=O)N(NC(=O)c3cccnc3)C1=O)C2(C)C (configuration not stated)	-10	100	-14	i	0.86	95	-0.8
Cn1c(=O)c2c(nc(NC3CCCCC3)n2Cc2ccccc2)n(C)c1=O	.	.	-3	i	0.92	99	-2.1
CCOC(=O)COc1c(OC)cc(Cl)cc1C1NC(=O)NC(C)=C1C(C)=O (configuration not stated)	-120	148	-2	i	1.1	99	-2.3
CC(/C=N/NC(=O)c1sc(N)nc1C)=C\c1ccccc1	-36	129	-1	i	0.85	111	.
CCOCCCn1c(=N)c(C(=O)Nc2cc(C)on2)cc2c(=O)n3ccccc3nc21	38	114	-7	.	.	.	0.3
O=C(OCn1nnc2ccccc2c1=O)c1ccc(S(=O)(=O)N2CCOCC2)cc1	-10	152	1	i	0.87	97	-0.9
CCC(c1nnnn1CCC(C)C)N1CCC(C(N)=O)CC1 (configuration not stated)	-3	66	-9	i	1	115	0.2
COc1ccc(C(=O)Nc2ccccc2NC(=O)c2ccco2)c(OC)c1	.	.	-5	i	0.97	100	.
CCCc1cc(NCCCCO)n2c(nc3ccccc32)c1C#N	79*	44*	-2	i	0.86	101	1.3
CC(OC(=O)c1ccc2ncsc2c1)C(=O)NCc1ccccc1 (configuration not stated)	-56	173	3	i	1	100	0.1
COc1cc2nc(CC(C)C)n(NC(=O)c3ccccc3)c(=O)c2cc1OC	.	.	-11	i	1.2	352	-1.8
Cc1ccc(NC(=O)CSc2ccccc2NC(=O)c2cccc(Cl)c2)cc1Cl	41	82	-18	i	1	106	0.1
CCOc1ccc2c(c1)OC(c1ccc(C)cc1)(C(F)(F)F)NC2=O (configuration not stated)	-61	29	-3	i	0.65	98	2.0
NC(=O)[C@H](Cc1cc2ccccc2s1)NC(=O)[C@@H]1CC2(CC(c3cccc(NC(=O)[C@@H]4CCC(=O)N4)c3)=NO2)CN1C(=O)c1ccccc1 (some centres not stated)	.	.	8	i	0.96	107	-3.1
COc1cccc(C(c2sc3nc(C)nn3c2O)N2CCN(C(=O)c3ccco3)CC2)c1 (configuration not stated)	-30	75	-12	i	0.92	105	-1.2
O=C1CC(C2CCCO2)C(=O)N1Cc1ccccc1 (configuration not stated)	-29	146	-4	i	0.9	157	0.4
O=C(CN1C(=O)NC2(CCCc3ccccc32)C1=O)Nc1cccc(S(=O)(=O)N2CCCCC2)c1 (configuration not stated)	16	87	-5	i	0.9	108	0.0
O=C(OCC(=O)N1CCN(C(=O)c2ccco2)CC1)c1ccccc1OCc1ccccc1	-27	100	-35	i	1	124	-2.4
Cc1cc(C)n(-c2nnc(C)n2/N=C/c2ccccc2OCc2ccccc2Cl)n1	-65	88	-13	i	1.1	111	1.8
O=C(Nc1ccncc1)C1CCCN(S(=O)(=O)c2cccc3cccnc23)C1 (configuration not stated)	.	.	-5	i	0.62	101	1.3
C=CCSc1nc2c(c(=N)n1CC=C)C1CCCC1S2 (configuration not stated)	0	73	-9	i	0.83	97	0.9
Cc1cc(C)c(C(N)=O)c(Cl)n1	.	.	26	i	0.9	105	.
CN(NC(=O)Nc1ccc(Cl)cc1)c1c(Cl)c(Cl)nn1C	-109	120	-2	i	0.92	95	.
O=C(N/N=C/c1c[nH]c2ccccc12)c1ccc2c(c1)OCCO2	.	.	.	i	0.88	99	.
CCCCN1Cc2c(nc3cc(-c4ccccc4)[nH]n3c2=O)C1=O	.	.	.	i	0.95	106	.
COc1ccc(-c2nn(-c3ccccc3F)cc2CNCCn2nc(C)cc2C)cc1	5	55	-5	i	0.79	109	.
COc1ccc(-c2cc3ccccc3oc2=O)cc1NC(=O)c1ccc([N+](=O)[O-])o1	-33	114	3	i	0.82	102	-1.8
O=C1COCCOCCOCC(=O)NCCN1	0	93	2	i	1.1	79	.
COC(=O)[C@H](CCSC)NC(=O)Nc1ccc(OC)c(Cl)c1	-31	69	-10	i	0.93	112	-1.9
COc1ccc(-c2c(C)c3ccc(OCC(C)=O)cc3oc2=O)cc1	.	.	-1	i	0.89	98	.
S=C(NCCc1cnc[nH]1)NC1CCCC1	.	.	3	i	0.99	103	.
Cc1cc(NC(=O)CCC(=O)N(c2cccnc2)C(C(=O)NC2CCCC2)c2ccccc2F)no1 (configuration not stated)	-40	90	-5	i	1.1	99	-0.6
Cc1c(O)c(CN2CCCC2)cc2c3c(c(=O)oc12)CCC3	23	166	-10	i	1.2	102	2.4
CCC(=O)N1Cc2ccccc2-c2ccccc2C1=O	-167	84	-3	i	0.92	93	-3.9
CN(Cc1ccccc1)S(=O)(=O)c1ccc(OCC(=O)N2CCC(C(N)=O)CC2)cc1	.	.	.	i	1.1	101	.
N#Cc1ccc(Oc2nc(Nc3ccc(F)cc3)nc(N3CCCC3)n2)cc1	-457	75	1	i	0.9	100	-1.7
CC(=O)Nc1cccc(OCC(=O)NS(=O)(=O)c2ccc(C)cc2)c1	21	159	-8	i	0.94	102	-2.5

Sorted by number of heavy atoms (ascending): some entries from above.
SMILES	INS promoter inh	INS promoter inh cell count	PKD1 kinase inh	HSV augment	HSV augment primary fold	RGS16-Gao	GALR2 ag
S=C(NCCc1cnc[nH]1)NC1CCCC1	.	.	3	i	0.99	103	.
O=C1COCCOCCOCC(=O)NCCN1	0	93	2	i	1.1	79	.
CCC(=O)N1Cc2ccccc2-c2ccccc2C1=O	-167	84	-3	i	0.92	93	-3.9
CN(NC(=O)Nc1ccc(Cl)cc1)c1c(Cl)c(Cl)nn1C	-109	120	-2	i	0.92	95	.
Cc1c(O)c(CN2CCCC2)cc2c3c(c(=O)oc12)CCC3	23	166	-10	i	1.2	102	2.4
CCCCN1Cc2c(nc3cc(-c4ccccc4)[nH]n3c2=O)C1=O	.	.	.	i	0.95	106	.
CC(=O)Nc1cccc(OCC(=O)NS(=O)(=O)c2ccc(C)cc2)c1	21	159	-8	i	0.94	102	-2.5
N#Cc1ccc(Oc2nc(Nc3ccc(F)cc3)nc(N3CCCC3)n2)cc1	-457	75	1	i	0.9	100	-1.7
COc1ccc(-c2cc3ccccc3oc2=O)cc1NC(=O)c1ccc([N+](=O)[O-])o1	-33	114	3	i	0.82	102	-1.8
CN(Cc1ccccc1)S(=O)(=O)c1ccc(OCC(=O)N2CCC(C(N)=O)CC2)cc1	.	.	.	i	1.1	101	.
Cc1cc(NC(=O)CCC(=O)N(c2cccnc2)C(C(=O)NC2CCCC2)c2ccccc2F)no1 (configuration not stated)	-40	90	-5	i	1.1	99	-0.6

Other structures
SMILES	INS promoter inh	INS promoter inh cell count	PKD1 kinase inh	HSV augment	HSV augment primary fold	RGS16-Gao	GALR2 ag
Cc1cccc(N2CCN(C(=O)c3ccc4nc(-c5ccco5)c(-c5ccco5)nc4c3)CC2C)c1 (configuration not stated)	31	83	-10	i	0.83	91	0.8
C=CCn1c2ccccc2c2nnc(SCC(=O)Nc3cc(C)on3)nc21	-8	95	-3	i	0.82	102	-1.3
COc1ccc([N+](=O)[O-])cc1NC(=O)C(C)OC(=O)C1c2ccccc2Oc2ccccc21 (configuration not stated)	-21	62	-8	i	0.99	102	-2.2
CCN(CC)CCNC(=O)c1[nH]c2ccc(OCc3ccccc3)cc2c1C	-62	80	-1	i	0.63	96	.
O/C(=C\c1nc2ccccc2nc1/C=C(\O)c1ccccc1)c1ccccc1	.	.	-7	i	1.3	101	.
CCC(C(=O)NC(C)CCc1ccccc1)n1nc(C)n2c(cc3occc32)c1=O (configuration not stated)	-31	93	-13	i	1.1	96	-0.6
CCOC(=O)N/N=C\c1ccc([N+](=O)[O-])s1	22	149	-1	i	0.81	110	.

High-throughput results (PubChem BioAssay)
